CtBP-E1A inh: qHTS Assay for Inhibitors of the CtBP/E1A Interaction; CtBP / adenovirus E1A interaction (AlphaScreen); AlphaScreen GST-E1A/His-CtBP binding, 1536-well; active compounds read low; control for the full effect not named in the record; activity change, % (concentration not given with the values); 0.49% of 340,000 active; AID 651724, 2012; in the data active means activity change below about -65%; inconclusive means about -30% to -65%; inactive means above about -30%
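AlphaScreen with 125 nM GST-E1A and 125 nM His-CtBP (5X stocks) in Tris pH 8.0, 300 mM NaCl, BSA, Tween 20, TCEP. Compounds preincubated 2 h at 37 deg C, then glutathione donor/nickel acceptor beads added for 1 h at 37 deg C in dark.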
Six1-Eya2 inh: qHTS Assay for Inhibitors of the Six1/Eya2 Interaction; AlphaScreen GST-Six1/His-Eya2 binding, biochemical; active compounds read low; control for the full effect not named in the record; AID 651725, 2012; Homeobox protein SIX1 (Homo sapiens) + Protein phosphatase EYA2 (Homo sapiens), …; 0.56% of 360,000 active; activity change, % (test concentration not listed); in the data active = activity change below about -65%; inconclusive = about -30% to -65%; inactive = above about -30%
Target sequence (O00167 whole entry, looked up): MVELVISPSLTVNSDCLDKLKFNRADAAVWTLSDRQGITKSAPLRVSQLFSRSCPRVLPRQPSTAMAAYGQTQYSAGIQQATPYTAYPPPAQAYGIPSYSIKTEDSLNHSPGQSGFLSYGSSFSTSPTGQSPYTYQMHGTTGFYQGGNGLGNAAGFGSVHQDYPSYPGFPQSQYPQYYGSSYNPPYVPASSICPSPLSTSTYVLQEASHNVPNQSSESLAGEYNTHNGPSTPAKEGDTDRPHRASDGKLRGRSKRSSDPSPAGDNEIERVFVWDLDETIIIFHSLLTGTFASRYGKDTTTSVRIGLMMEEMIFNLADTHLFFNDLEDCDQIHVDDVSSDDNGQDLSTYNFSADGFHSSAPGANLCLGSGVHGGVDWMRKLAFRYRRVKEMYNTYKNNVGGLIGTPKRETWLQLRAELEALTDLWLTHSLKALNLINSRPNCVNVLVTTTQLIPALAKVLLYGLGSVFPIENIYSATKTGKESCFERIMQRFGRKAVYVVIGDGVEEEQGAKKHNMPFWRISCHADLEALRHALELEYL
Target sequence (Q15475 whole entry, looked up): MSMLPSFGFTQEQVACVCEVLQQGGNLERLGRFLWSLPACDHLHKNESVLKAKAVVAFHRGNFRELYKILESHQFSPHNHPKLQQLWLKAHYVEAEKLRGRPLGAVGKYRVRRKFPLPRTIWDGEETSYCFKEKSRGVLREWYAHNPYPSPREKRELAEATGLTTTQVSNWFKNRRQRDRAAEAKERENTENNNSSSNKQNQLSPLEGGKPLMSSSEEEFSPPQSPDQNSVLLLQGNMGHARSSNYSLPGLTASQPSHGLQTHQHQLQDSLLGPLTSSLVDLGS
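AlphaScreen with GST-Six1 and His-Eya2 (5X mix: 250 nM and 500 nM), glutathione donor and nickel acceptor beads; buffer 50 mM Tris pH 8.0, 300 mM NaCl, 1 mM TCEP; 1 h at 37 C in the dark.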
Numbers without * were called inactive; ? = inconclusive. % is scaled to controls: 0 for no effect and ±100 for the full control effect. These rows are one share of the data; count on the stated rates, not on these rows.

Six1-Eya2 inh | CtBP-E1A inh | Structure
1 | -6 | COC(=O)C1=CN(c2c(C)cc(C)cc2C)C(N)=C(C#N)C1c1ccccc1 (stereo not given)
5 | 5 | CC1(c2nnnn2Cc2ccccc2)CCC(=O)N1CC1CCCCC1 (stereo not given)
0 | -2 | COC(=O)C[C@@H]1OC[C@H](CO)N1S(=O)(=O)c1ccc(C)cc1
0 | 9 | O=C(NCC[C@H]1CC[C@@H](NC(=O)C2CCC2)[C@@H](CO)O1)c1cc(Cl)cc(Cl)c1
7 | -6 | C[C@@H](NC(=O)[C@@H]1CCCN1C(=O)[C@@H]1CCCN1C(=O)c1cccc(Cl)c1)c1ccccc1
15 | -22 | CCCCCCn1cc(CN2CC(N3CCCCC3)CS2(=O)=O)nn1 (stereo not given)
8 | 2 | CCC(=O)N[C@@H]1C=C[C@@H](CC(=O)NCc2ccccc2F)O[C@@H]1CO
0 | 3 | CC(C)(C)N1C(=O)c2ccccc2NC(=O)C1C(=O)Nc1ccc(N2CCOCC2)cc1 (stereo not given)
? | ? | C[C@H](c1ccccc1)N1C[C@H](COCc2ccccc2)Oc2cc(N3CC[C@H](N(C)C)C3)ccc2S1(=O)=O
1 | -17 | COC(=O)C1(C(=O)OC)Cc2ccccc2N(S(=O)(=O)c2ccc(C)cc2)C1CC(C)=O (stereo not given)
-13 | -28 | Nc1sc(-c2ccccc2)cc1C(=O)NCCc1c[nH]c2ccccc12
15 | -5 | Cc1cccc(C)c1NC(=O)C1(C)CN(S(C)(=O)=O)CC(=O)N1CCc1ccccc1F (stereo not given)
1 | -7 | O=c1[nH][nH]c2c1C(C1CCCCC1)OC(C1CCCCC1)C2 (stereo not given)
11 | -23 | COCCN1C(=O)c2ccccc2C1c1nnnn1C(C)C (stereo not given)
-6 | 0 | CCCCn1nnnc1C1(C)CCC(=O)N1CCOC (stereo not given)
23 | 10 | O=C(NCc1ccccc1)C(c1ccccc1F)n1c(=O)c(-c2ccccc2)nc2ccccc21 (stereo not given)
35 | 0 | CCCCCNC(=O)C(c1cccc2ccccc12)n1c(=O)c(-c2cc3ccccc3[nH]2)nc2ccccc21 (stereo not given)
-23 | -7 | COC(=O)[C@@]1(Cc2ccc(OC)cc2)[C@H]2c3cc(C(=O)N4CCCC4)n(CCc4ccc(OC)c(Br)c4)c3C[C@H]2CN1C(=O)c1ccccc1
-3 | 1 | COc1ccccc1Cc1c(C2CCCCC2)nc2cc(C)c(Br)c(C)n12
0 | -1 | CC(C)NC(=O)C1(C)CN(S(C)(=O)=O)CC(=O)N1CCc1ccccc1 (stereo not given)
15 | -21 | CN(CCO)c1cccc2c1S(=O)(=O)N[C@@H](Cc1ccccc1)CO2
2 | 5 | Cc1ccc2nc(-c3cccc(Cl)c3)c(Cc3ccccc3)n2c1
-13 | -17 | COC(=O)[C@@]12C[C@@H](CC(=O)NCCc3ccccc3OC)C(=O)N(Cc3ccc4c(c3)OCO4)C1=CCC(C)(C)C2
-16 | 3 | COC(=O)[C@]12CCCCC=C1N(Cc1ccc3c(c1)OCO3)C(=O)[C@H](CC(=O)NCC13CC4CC(CC(C4)C1)C3)C2
0 | 0 | CCCCN1C(=O)C(CC(=O)NC(c2ccccc2)c2ccccc2)CC(C(=O)N2CCCCCC2)=C1C (stereo not given)
-7 | 3 | COC(=O)CCCC[C@@H]1O[C@H](CCc2ccccc2)Cc2[nH][nH]c(=O)c21
1 | 0 | COC(=O)[C@]12CCCCC=C1N(CCC1=CCCCC1)C(=O)[C@H](CC(=O)NCCCCc1ccccc1)C2
-4 | 0 | CCC(c1nnnn1-c1ccc2c(c1)OCCO2)N1CCN(c2ccccc2OC)CC1 (stereo not given)
6 | 1 | CC(C)NC(=O)C1(C)CN(S(C)(=O)=O)CC(=O)N1CCCN1CCOCC1 (stereo not given)
13 | 3 | COCCCNC(=O)C[C@@H]1C[C@@]2(C(=O)OC)CC(C)(C)CC=C2N(Cc2ccccc2)C1=O
-1 | -5 | Cc1ccc(C)c(N2CCN(C(C(=O)NC3CCCC3)c3ccco3)CC2)c1 (stereo not given)
-2 | 8 | CC(C)C[C@H]1CN([C@@H](CC(C)C)CN2CCC[C@H]2CN2C(=O)C(=O)NC[C@@H]2Cc2ccccc2)C(=O)C(=O)N1CCc1ccccc1
-11 | -4 | Cc1cccc(C)c1-n1nnnc1C(c1ccnc2ccccc12)N(CCC#N)Cc1ccccc1 (stereo not given)
-7 | 0 | CC1(C(=O)NCc2ccccc2)CN(S(C)(=O)=O)CC(=O)N1CCCn1ccnc1 (stereo not given)
-8 | -2 | O=C(Cc1cc(C(F)(F)F)cc(C(F)(F)F)c1)Nc1c(-c2ccccc2)[nH][nH]c1=O
-10 | -11 | COC(=O)[C@@]12C[C@@H](CC(=O)NCc3cccs3)C(=O)N(Cc3ccco3)C1=CCC(C)(C)C2
15 | 2 | CC1(c2nnnn2Cc2ccccc2)CCC(=O)N1CCc1ccc(O)cc1 (stereo not given)
-4 | 9 | N#Cc1ccc(C(C(=O)Nc2ccc3c(c2)OCCO3)n2c(=O)c(-c3ccco3)nc3ccccc32)cc1 (stereo not given)
-23 | 0 | CC(C)(C)NC(=O)C(c1cccc2ccccc12)n1c(=O)c(-c2ccco2)nc2ccccc21 (stereo not given)
3 | 8 | O=C(NC1CCCC1)N[C@@H]1CC[C@@H](CC(=O)N2CCOCC2)O[C@@H]1CO
-4 | -1 | COC(=O)[C@]12CCCCC=C1N(Cc1ccco1)C(=O)[C@H](CC(=O)NCc1ccccc1)C2
2 | 2 | CCCCNC(=O)C1c2ccccc2OCC(=O)N1CCc1ccc(OC)c(OC)c1 (stereo not given)
-1 | -4 | O=C(C(=O)N1CCN(c2ccncc2)CC1)c1cccc(Br)c1
-14 | 0 | O=C(NCc1ccccc1)C(c1ccc(-c2ccccc2)cc1)n1c(=O)c(-c2ccco2)nc2ccccc21 (stereo not given)
22 | 9 | CC(C)C[C@H]1CN(CCCC[C@H]2CNC(=O)C(=O)N2CCc2ccccc2)C(=O)C(=O)N1Cc1ccccc1
4 | -20 | Nc1[nH]c(C(=O)c2ccccc2)c(-c2ccc(C(F)(F)F)cc2)c1C(=O)NCc1ccc(Cl)cc1Cl
-14 | -3 | CCC(=O)N1Cc2cc(C(=O)Nc3nccs3)nc(-c3cccc(-c4ccccc4OC)c3)c2[C@@H]1CCO
8 | 1 | CCOC(=O)N1CCN(C(=O)C[C@@H]2C[C@@]3(C(=O)OCC)CCC=C3N(Cc3ccccc3)C2=O)CC1
8 | 7 | COC(=O)c1ccc2nc(-c3ccccc3)c(Cc3ccc(C)cc3)n2c1
-12 | -9 | CC(C)c1cc(C(=O)NCCc2cccs2)c(N)s1
8 | 0 | Cc1ccc(S(=O)(=O)Nc2ccccc2O)cc1
-15 | 1 | Cc1cc(C)n2c(NCc3ccccc3)c(CCc3ccccc3)nc2n1
-17 | -1 | Nc1[nH]c(C(=O)c2ccccc2)c(-c2ccc(Cl)c(F)c2)c1C(=O)NCCc1c[nH]c2ccccc12
-5 | 3 | O=C1C(Sc2ccccc2)=C[C@@]2(O)CC[C@@H](O)[C@]1(Sc1ccccc1)[C@H]2O
0 | -5 | COC(=O)C[C@H]1CC[C@@H](NC(=O)Nc2ccc(C(F)(F)F)cc2)[C@@H](CO)O1
2 | -1 | O=C(Cc1cccnc1)N[C@@H]1CC[C@H](CCn2cc(Cc3ccccc3)nn2)O[C@@H]1CO
-18 | -15 | COc1ccc(C(=O)c2[nH]c(N)c(C(=O)NCCc3c[nH]c4ccccc34)c2-c2ccc(Cl)c(F)c2)cc1
54 | 15 | CCOC(=O)CC1(CCc2ccccc2)Oc2ccccc2O1
26 | 0 | COc1ccc(CN2C(=O)C(CC(=O)NCCN3CCOCC3)CC(C(=O)N3CCCCCC3)=C2C)cc1 (stereo not given)
-15 | -1 | COC(=O)[C@@]12C[C@@H](CC(=O)N3CCSCC3)C(=O)N(Cc3cccc4ccccc34)C1=CCC(C)(C)C2

Among those listed so far, these have fluorine.
Six1-Eya2 inh | CtBP-E1A inh | Structure
8 | 2 | CCC(=O)N[C@@H]1C=C[C@@H](CC(=O)NCc2ccccc2F)O[C@@H]1CO
15 | -5 | Cc1cccc(C)c1NC(=O)C1(C)CN(S(C)(=O)=O)CC(=O)N1CCc1ccccc1F (stereo not given)
23 | 10 | O=C(NCc1ccccc1)C(c1ccccc1F)n1c(=O)c(-c2ccccc2)nc2ccccc21 (stereo not given)
-8 | -2 | O=C(Cc1cc(C(F)(F)F)cc(C(F)(F)F)c1)Nc1c(-c2ccccc2)[nH][nH]c1=O
4 | -20 | Nc1[nH]c(C(=O)c2ccccc2)c(-c2ccc(C(F)(F)F)cc2)c1C(=O)NCc1ccc(Cl)cc1Cl
-17 | -1 | Nc1[nH]c(C(=O)c2ccccc2)c(-c2ccc(Cl)c(F)c2)c1C(=O)NCCc1c[nH]c2ccccc12
0 | -5 | COC(=O)C[C@H]1CC[C@@H](NC(=O)Nc2ccc(C(F)(F)F)cc2)[C@@H](CO)O1
-18 | -15 | COc1ccc(C(=O)c2[nH]c(N)c(C(=O)NCCc3c[nH]c4ccccc34)c2-c2ccc(Cl)c(F)c2)cc1

(list continues)
Six1-Eya2 inh | CtBP-E1A inh | Structure
-11 | -4 | COC(=O)[C@]12CCCCC=C1N(Cc1ccccc1)C(=O)[C@H](CC(=O)NCc1ccc(C)o1)C2
7 | 11 | CO[C@H]1CN(C)C(=O)c2cc(NC(=O)C3CCOCC3)ccc2OC[C@H](C)N(Cc2nccs2)C[C@H]1C
-8 | -1 | CC(C)C[C@H]1COc2cccc(N3CCC[C@H]3CO)c2S(=O)(=O)N1
23 | 31 | Cc1cccc(C)c1NC(=O)C1c2ccccc2OCC(=O)N1C1CC1 (stereo not given)
1 | 2 | O=C(NCc1ccc(F)cc1F)[C@@H]1CCCN1C(=O)[C@@H]1CCCN1C(=O)c1cccs1
-5 | 0 | CC1(C(=O)NCc2ccccc2)CSCC(=O)N1CCc1c[nH]c2ccccc12 (stereo not given)
4 | 5 | CC(C)C[C@H]1CN(CCCC[C@H]2CNC(=O)C(=O)N2CC2CCCCC2)C(=O)C(=O)N1CCC1CCCCC1
4 | 5 | COc1cccc(C(=O)N2CCC[C@H]2C(=O)N2CCC[C@H]2C(=O)N[C@H](C)c2ccccc2)c1
10 | 4 | CC(C)(C)n1nnnc1C(c1ccccc1)N1CCN(C(=O)c2ccco2)CC1 (stereo not given)
-7 | 2 | CCOC(=O)[C@]12CCC=C1N(Cc1ccccc1)C(=O)[C@H](CC(=O)NCCc1ccccc1OC)C2
-4 | 3 | C#CCNC(=O)C[C@@H]1C[C@@]2(C(=O)OC)CC(C)(C)CC=C2N(Cc2cccc3ccccc23)C1=O
6 | -13 | COC1=CC(=O)OC(c2cccc(Cl)c2)C1 (stereo not given)
-1 | 0 | CCCCNC(=O)C(NC(=O)Cc1cc(C(F)(F)F)cc(C(F)(F)F)c1)C(=O)c1ccccc1 (stereo not given)
0 | 1 | COC(=O)C[C@@H]1CC[C@H](NS(=O)(=O)c2cccc(F)c2)[C@@H](CO)O1
3 | 0 | O=c1[nH][nH]c2c1C(c1ccc(Cl)c(Cl)c1)OC(CCc1ccccc1)C2 (stereo not given)
-15 | -4 | COc1ccc(NC(=O)C(c2ccnc3ccccc23)n2c(=O)c(-c3ccccc3)nc3ccccc32)cc1 (stereo not given)
0 | 0 | Nc1[nH]c(C(=O)c2ccc(Br)cc2)c(-c2ccc(Br)cc2)c1C(=O)NCCc1c[nH]c2ccccc12
-2 | 4 | O=C(Nc1ccc2c(c1)OCCO2)C1C(=O)Nc2ccccc2C(=O)N1C1CCCCC1 (stereo not given)
12 | -14 | O=C(NCCN1CCC(n2c(=O)[nH]c3ccccc32)CC1)c1ccc(Cl)cc1Cl
4 | -23 | Cc1ccc2nc(-c3ccc(F)cc3)c(CC3CCCCC3)n2c1
1 | 2 | CCCCn1nnnc1C(c1cc2ccccc2o1)N(C)Cc1ccccc1 (stereo not given)
10 | -13 | Nc1nc2ccc(Cl)cc2cc1C(=O)NCCc1ccc(Cl)cc1Cl
11 | 4 | CC1C(O)=C(c2ccccc2)P(=O)(Cc2ccccc2)C1C (stereo not given)
-1 | 10 | Cc1cccc(C)c1-n1nnnc1C1(C)CCC(=O)N1Cc1cccnc1 (stereo not given)
0 | 1 | CN1CCC(N2CCN(C3CN(Cc4cn(Cc5ccc(F)cc5)nn4)S(=O)(=O)C3)CC2)CC1 (stereo not given)
-16 | -11 | CCOC(=O)[C@]12CCCC=C1N(Cc1cccc3ccccc13)C(=O)[C@H](CC(=O)N1CCC(c3ccccc3)CC1)C2
15 | -10 | Fc1ccc(-c2nc3c(Cl)cc(C(F)(F)F)cn3c2Cc2cccc(Cl)c2)cc1
-3 | -1 | O=C(Nc1ccc(F)cc1)C(c1cccc(F)c1)N1CCN(c2ccncc2)CC1 (stereo not given)
1 | 3 | Nc1nc2cc(Cl)ccc2cc1C(=O)NCCCc1ccccc1
-15 | -8 | CCCCc1c(-c2ccc(F)cc2)ncn1CCc1ccccc1OC
5 | 4 | COc1ccc(-c2c(C(=O)c3ccccc3)[nH]c(N)c2C(N)=O)cc1OC
